Screening results as filed in PubChem.
ClpP mod – qHTS Assay for Activators of ClpP; ATP-dependent Clp protease proteolytic subunit (Bacillus subtilis (strain 168)), P80244; purified B. subtilis ClpP, FRET peptide cleavage, 20 min; Potency, µM (highest dose often 57.5 µM), inactives show at the highest dose activity change, negative = active; actives 1.9% (n = 340,000); AID 651965, 2013; active = well fitted falling curve with a large enough effect; inconclusive = small, poorly fitted or top-dose-only effect; inactive = no such curve, though single readings can be large or run the other way; further: the source files actives as falling curves though it sought activators and does not explain the sign; nearly all actives have a fitted effect of over 65% in size; many hits overshoot -100%
Target sequence (P80244 whole entry, looked up): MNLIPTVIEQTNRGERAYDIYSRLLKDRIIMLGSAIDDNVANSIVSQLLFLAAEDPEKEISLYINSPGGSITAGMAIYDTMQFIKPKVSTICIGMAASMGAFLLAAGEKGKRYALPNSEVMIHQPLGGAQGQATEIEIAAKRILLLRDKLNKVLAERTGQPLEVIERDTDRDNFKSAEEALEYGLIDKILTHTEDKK
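FRET quenching reversal measured ClpP activation: 10 microg/mL B. subtilis ClpP at pH 8 with the FRET-FV decapeptide, read at 430 nm after 320 nm excitation. The 20-min minus 0-min signal was scaled between DMSO/no-enzyme wells and ADEP (5.8 microM final).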
Starred values were filed as active, the others as inactive; ? = inconclusive. Potency means the concentration at half of the fitted maximal effect. Not all compounds are listed (hit frequency here may not be typical).

| canonical_smiles | ClpP mod |
| --- | --- |
| O=C1NC[C@@H](CCCCN2C[C@H](Cc3ccc(O)cc3)N(CC3CCCCC3)C(=O)C2=O)N(CCc2ccccc2)C1=O | -1.1% |
| CCc1ccc(NC(=O)c2cc(S(=O)(=O)NC3CCCCCC3)ccc2F)cc1 | -7.8% |
| CCOC(=O)c1ccc(NC(=O)COCc2cc(-c3ccc4c(c3)OCO4)on2)cc1 | -1.6% |
| Cc1sc2ncn(CC(=O)N3CCN(c4ccc(F)cc4)CC3)c(=O)c2c1S(=O)(=O)N1CCN(c2ncccn2)CC1 | -7.7% |
| O=C(CNC(=O)c1ccccc1)OCc1cc(=O)n2ccsc2n1 | ? |
| COc1ccc(CNC(=O)c2cc3sccc3n2C)cc1 | 1.7% |
| O=C(CSc1nnc2ccc3ccccc3n12)Nc1ccccc1Cl | -2.7% |
| Cc1ccccc1C(=O)Nc1nc2nc(-c3ccccc3)cc(=O)n2[nH]1 | -7.7% |
| COc1cccc(-c2nn(C)c3sc(C(=O)N4CCN(c5cccc(C)c5)C(C)C4)cc23)c1 (centres undefined) | ? |
| C=Cc1ccc(Cn2c(C(=O)O)c(CNCc3cc(OC)ccc3OC)c3ccc(C)cc32)cc1 | 0.3% |
| COc1cccc(N2CCN(C(=O)c3c(C)oc4ncnc(N5CCOCC5)c34)CC2)c1 | 1.4% |
| Cn1cc([C@]2(O)C(=O)Nc3cccc(Cl)c32)c2ccccc21 | 1.8% |
| CCOc1ccc(CCNC(=O)c2ccc(-n3c(C)cc4c3CCC(C)C4)cc2)cc1OCC (centres undefined) | -6.4% |
| CCOC(=O)c1c(-c2ccc(C)cc2C)csc1NC(=O)c1ccccc1Cl | ? |
| Cc1ccc(SCc2nc(-c3ccc(C(=O)NCc4ccc(Cl)cc4)cc3)oc2C)cc1 | 8.0% |
| CCOc1ccc(-c2cc(CCCC(=O)NCCc3ccc(OC)c(OC)c3)no2)cc1 | 0.4% |

Individual results from above:
Entry for `Cc1ccc(SCc2nc(-c3ccc(C(=O)NCc4ccc(Cl)cc4)cc3)oc2C)cc1` under ClpP mod: 8.0%
Entry for `C=Cc1ccc(Cn2c(C(=O)O)c(CNCc3cc(OC)ccc3OC)c3ccc(C)cc32)cc1` under ClpP mod: 0.3%
Entry for `CCOC(=O)c1ccc(NC(=O)COCc2cc(-c3ccc4c(c3)OCO4)on2)cc1` under ClpP mod: -1.6%

(continued)
| canonical_smiles | ClpP mod |
| --- | --- |
| CCN(CC)S(=O)(=O)c1ccc(C(=O)N2CC(=O)Nc3ccc(F)cc3C2c2ccccc2)cc1 (centres undefined) | 0.2% |
| COc1ccccc1N(C)C(=O)Cn1c(=O)oc2cc(S(=O)(=O)N3CCCC3)ccc21 | 0.9% |
| Cc1ccc(NC(=O)c2ncn(-c3ccccc3)n2)cc1Cl | ? |
| CCOc1ccc(NC(=O)NCc2c(-n3cccc3)sc3c2CCCC3)cc1 | -0.9% |
| Cc1cc(OCCCSc2nc(-c3ccc(C(C)(C)C)cc3)nc3cc(=O)[nH]n23)ccc1Cl | -6.0% |
| CCOC(=O)[C@]12CCC=C1N(Cc1ccc3c(c1)OCO3)C(=O)[C@H](CC(=O)NCc1ccccc1)C2 | -14.5% |
| CC(C)(C)C(=O)Nc1c(C(=O)N2CCN(c3ccc(F)cc3)CC2)oc2ccccc12 | -3.3% |
| COc1ccc(-c2nc3c(C#N)c[nH]n3c2NC2CCCCC2)c(OC)c1 | -1.9% |
| COc1ccccc1CNC(=O)C[C@H]1CC[C@@H]2[C@H](COC[C@H](O)CN2Cc2ccc3c(c2)OCO3)O1 | -1.8% |
| CC(C)C(=O)Nc1nc2c(ncn2[C@H]2CC(O)[C@@H](CO)O2)c(=O)[nH]1 (some centres undefined) | 0.0% |
| COC(=O)[C@@]12C[C@@H](CC(=O)NCc3ccc(C)o3)C(=O)N(Cc3cccc4ccccc34)C1=CCC(C)(C)C2 | -1.7% |
| CCn1c(C(=O)NCCc2ccc(OC)c(OC)c2)cc2sc(Cl)cc21 | -4.1% |
| CCC(Oc1ccccc1F)C(=O)Nc1cc(-c2ccccc2)no1 (centres undefined) | -0.6% |
| COc1ccc(OC)c(S(=O)(=O)N2CCN(Cc3nc4ccc(C)cc4o3)CC2)c1 | 0.4% |
| O=C1NC[C@@H](CCCCN2CCN(CCc3ccc(O)cc3)C(=O)C2=O)N(CCc2ccc(O)cc2)C1=O | -0.4% |
| Cc1cccc(NC(=O)N2CC=C(c3c[nH]c4ccccc34)CC2)c1C | -28.6% |

Grouped by structure: the compounds so far containing a tert-butyl group.
| canonical_smiles | ClpP mod |
| --- | --- |
| Cc1cc(OCCCSc2nc(-c3ccc(C(C)(C)C)cc3)nc3cc(=O)[nH]n23)ccc1Cl | -6.0% |
| CC(C)(C)C(=O)Nc1c(C(=O)N2CCN(c3ccc(F)cc3)CC2)oc2ccccc12 | -3.3% |

The list goes on:
| canonical_smiles | ClpP mod |
| --- | --- |
| CC(=O)Nc1nonc1-c1nnc(SCc2ccc(F)cc2Cl)n1C | -2.1% |
| Cc1ccc(C)n1-c1nnc(N2CCCC(C(=O)NCc3ccccc3)C2)s1 (centres undefined) | 4.9% |
| CC(C)n1nnnc1C1c2ccccc2C(=O)N1CCCn1ccnc1 (centres undefined) | 0.4% |
| CCN(C(=O)CSc1ncc(S(=O)(=O)c2ccc(C)c(Cl)c2)c(=O)[nH]1)c1cccc(C)c1 | -8.9% |
| Cc1ccc(C)n1-c1nnc(N2CCCC(C(=O)Nc3ccccc3Br)C2)s1 (centres undefined) | 4.3% |
| COC(=O)[C@]12CCCCC=C1N(Cc1ccc(Cl)cc1Cl)C(=O)[C@H](CC(=O)N1CCCCC1)C2 | 0.8% |
| CCc1ccc(NCc2cc3cc4c(cc3n(CC(=O)Nc3ccc(C)cc3)c2=O)OCO4)cc1 | 4.2% |
| COc1ccc(-n2ccnc(NCc3ccc(Cl)cc3)c2=O)cc1 | -8.4% |
| Cc1ccccc1NC(=O)N1CCC(CN2CCCC2)CC1 | -0.8% |
| COc1ccc(CNc2oc(-c3ccc(COc4ccc(OC)cc4)o3)nc2C#N)cc1 | 22.4µM* |
| CCOc1cccc(C2c3[nH]c4ccccc4c3CCN2C(=O)CCc2ccccc2)c1 (centres undefined) | -5.0% |
| CCOc1ccccc1NC(=O)C1=C(C)Nc2ncnn2C1c1ccc(C)o1 (centres undefined) | -2.5% |
| CC(=O)c1cccc(NC(=O)c2ccc3nc(Cc4ccccc4)oc3c2)c1 | -5.6% |
| CCOC(=O)/C=C1\CN(Cc2ccc(OC)cc2)S(=O)(=O)c2ccc(C(F)(F)F)cc21 | -0.9% |
| CCN1CCN(c2ncc3c(n2)CCN(Cc2cccc(F)c2F)C3)CC1 | 1.5% |
| O=C(CSc1ncc2c(n1)-c1ccccc1N(Cc1ccccc1)S2(=O)=O)Nc1ccccc1 | -8.9% |

(next part)
Molecule	ClpP mod
Cc1ccc(-c2nnc(Nc3ccc(O)cc3)c3ccccc23)cc1S(=O)(=O)NCC1CCCO1 (centres undefined)	-1.0%
COc1cc(NC(=O)CSc2ccc(-c3sc(C)nc3C)nn2)cc(OC)c1	-1.9%
CCC(Sc1nc2ccccc2c2nc(CCc3c(C)n[nH]c3C)nn12)C(=O)Nc1ccc(F)cc1 (centres undefined)	1.6%
CCOC(=O)c1ccc(NS(=O)(=O)c2ccc(-c3cc(C)no3)cc2)cc1	0.4%
CCOc1ccc(-c2cc3nc(C4CCN(C(=O)OC(C)(C)C)CC4)c(C(=O)Nc4ccc(C(=O)OC)cc4)cn3n2)cc1	?
CCN(CC)S(=O)(=O)c1ccc2c(c1)N(CC(=O)Nc1ccc(C)cc1C)C(=O)C1CCCN21 (centres undefined)	27.6%
CCOc1ccc(/C=C/c2nc(C#N)c(N3CCCCC3)o2)cc1	4.2%
CCC(=O)N1CCc2cc(S(=O)(=O)NC(CC(C)C)C(=O)Nc3cc(C)ccc3OC)ccc21 (centres undefined)	-2.2%

Reformatted with each value named: four of the compounds above
SMILES: CCOC(=O)c1ccc(NS(=O)(=O)c2ccc(-c3cc(C)no3)cc2)cc1
  ClpP mod = 0.4%

SMILES: CCC(=O)N1CCc2cc(S(=O)(=O)NC(CC(C)C)C(=O)Nc3cc(C)ccc3OC)ccc21 (centres undefined)
  ClpP mod = -2.2%

SMILES: COc1cc(NC(=O)CSc2ccc(-c3sc(C)nc3C)nn2)cc(OC)c1
  ClpP mod = -1.9%

SMILES: CCOc1ccc(/C=C/c2nc(C#N)c(N3CCCCC3)o2)cc1
  ClpP mod = 4.2%

Next section
Molecule	ClpP mod
CCCSc1ncc(Cl)c(C(=O)N(Cc2cccc(Cl)c2)C2CCS(=O)(=O)C2)n1 (centres undefined)	1.1%
CCc1ccc(-n2nc3cc(C)c(NC(=O)c4cc(Cl)ccc4OC)cc3n2)cc1	-21.7%
COc1ccc(CCNC(=O)CSc2cc(=O)n(C)c3ccccc23)cc1OC	-0.9%
COc1ccc(CNC(=O)c2cc(-c3ccc(Br)s3)nc3ccccc23)c(OC)c1	?
Cc1nc2ccccc2n1CCc1nc2c3ccccc3nc(SCc3ccc(F)cc3)n2n1	-2.9%
Cc1c(Cl)cccc1NC(=O)CSc1ncnc2c1sc1ccccc12	-2.6%
COc1ccc(-c2nc3sc(CCNC(=O)c4ccc(Br)o4)c(C)n3n2)cc1	-1.9%
COc1ccc(C)cc1NC(=O)c1ccc2nc(Cc3ccccc3)oc2c1	-23.6%
CCCCC(=O)Nc1cc2nn(-c3ccc(OCC)cc3)nc2cc1C	-20.4%
COc1ccc(CNCCC(c2ccc3c(c2)OCO3)c2ccccc2OC)cc1 (centres undefined)	0.3%
Cc1cc(NC(=O)c2ccc(F)cc2)ccc1-c1cc2ccccc2oc1=O	4.2%
COc1ccc(N2CCN(C(=O)Cn3ncc4c3-c3cc(C)ccc3OC4)CC2)cc1	0.1%
CSCCC(NS(=O)(=O)c1ccc2c(c1)oc(=O)n2C)C(=O)N1CCN(c2cccc(Cl)c2)CC1 (centres undefined)	-3.8%
COc1cc(NC(=O)CSc2nc(C)c(C(=O)Nc3ccccc3)c(-c3ccc(OC)c(OC)c3)c2C#N)c(OC)cc1Cl	0.4%
COc1ccc(CCNC(=O)CSc2nc3ccccc3nc2Cc2ccc(Cl)cc2)cc1OC	-2.7%
Cc1nn(-c2ccc(N3CCOCC3)nn2)c(C)c1CCC(=O)Nc1ccc(F)cc1F	1.1%
CC1CN(C(=O)CCC(=O)NCc2ccc(F)cc2)c2cc(Cl)ccc2O1 (centres undefined)	-1.3%
O=C(CCc1nc(-c2cccs2)no1)Nc1ccccc1[N+](=O)[O-]	-0.9%
CCc1ccc(NC(=O)CSc2nccn2-c2ccc(OC)cc2)cc1	1.5%
COc1ccc(CCNC(=O)Cn2nnc(-c3ccc(C(F)(F)F)cc3)n2)cc1OC	-1.0%
CCCCOc1ccc(S(=O)(=O)n2nc(C)c(S(=O)(=O)N3CCCCCC3)c2C)cc1	0.6%
O=C1COc2cc(S(=O)(=O)CCC(=O)N3CCN(c4ccccc4F)CC3)c(Cl)cc2N1	0.8%
CCOC(=O)c1ccc(NC(=O)CSc2nccn2Cc2ccc(OC)cc2)cc1	1.0%
CCOc1ccc(CCNC(=O)CCCn2c(=O)c3cccn3c3cccnc32)cc1	4.5%
O=C(Nc1ccc(OC(F)(F)F)cc1)C1CCCN(S(=O)(=O)c2cccc3nonc23)C1 (centres undefined)	0.4%
CN(C)c1ccc(-c2nc(-c3cc4cc(Cl)ccc4oc3=O)cs2)cc1	1.0%
Cc1ccc(N2CCN(C(=O)C3CCN(c4ncnc5c4nc4n5CCCCC4)CC3)CC2)c(C)c1	-2.9%
COCCNc1ncnc2c1cnn2-c1cc(Cl)ccc1C	0.0%
O=C(CSc1nc2c([nH]c3ccccc32)c(=O)n1-c1ccccc1)Nc1ccccc1F	?
Cc1ccc(C)c(Cn2cnc3c(cnn3-c3ccc(F)cc3)c2=O)c1	0.9%
COc1cccc(-c2cc(C(=O)NCc3ccc(F)cc3)no2)c1	-18.2%
Cc1ccc(S(=O)(=O)N2CCN(Cc3cc(Br)ccc3O)CC2)cc1	2.3%
Cc1ccc(C)c(NS(=O)(=O)c2cc3c(cc2Cl)NC(=O)CO3)c1	2.3%
Cc1ccc(NC(=O)c2ccc(-n3nncc3-c3ccccc3)cc2)cc1	19.6%
CCc1ccc(CN2C(=O)c3ccccc3C2C(=O)NC2CCCCCC2)cc1 (centres undefined)	-0.3%
CCOC(=O)C1=C(CN(C)Cc2ccccc2)NC(=O)NC1c1ccc(OC)cc1 (centres undefined)	-0.5%
COc1ccc2c(c1)c(=O)c(S(=O)(=O)c1ccc(F)cc1)cn2CC(=O)Nc1ccc(C)cc1C	?
Cc1cccc(CNC(=O)CN2C(=O)CSc3c2c(C)nn3-c2ccccc2)c1	0.5%
CCc1ccc(CNC(=O)c2nn(-c3ccc(C)cc3)c(=O)c3c2c2ccccc2n3C)cc1	-4.5%
FC(F)(F)c1cccc(-c2nnn3c2nc(NC2CCCCC2)c2ccccc23)c1	-6.0%
CCOC(=O)c1cc(C)n(CC2CCC(C(=O)Nc3ccc(C(=O)OC)cc3)CC2)c1C (centres undefined)	0.4%
CSc1ncc(C(=O)NCc2ccccc2F)c(-c2ccccc2)n1	-0.6%
Cc1ccc(-n2ncc3c(N(CC(C)C)CC(C)C)ncnc32)c(C)c1	-15.6%
Cc1ccc2c(c1C)NC(=O)CC2c1ccc(Cl)cc1Cl (centres undefined)	1.5%
O=C(CSc1nc(=O)[nH]c2c1CCC2)NCc1ccc(F)cc1	-5.6%
CCOc1ccc(CNC(=O)C2CCCN(c3nn4cc(-c5ccc(OC)cc5)nc4s3)C2)cc1 (centres undefined)	-1.1%
CCc1nn(CC(=O)NC(C)CC)c(=O)c2cc3c(OC)cccc3n12 (centres undefined)	?
COc1ccc(Oc2nc3c(c(=O)n(Cc4ccc(Br)cc4)c(=O)n3C)n2C)cc1	-0.9%
O=C1NC[C@H](CCCCN2CCN(CCc3ccc(O)cc3)C(=O)C2=O)N(CCc2ccc(O)cc2)C1=O	-0.8%
